CBX7 inh: CBX7 inhibition, primary AlphaScreen | O95931 | AlphaScreen His6-CBX7 / biotin-H3K27me3 peptide binding; active compounds read low | normalised signal (fraction of DMSO) (concentration not given with the values) | actives 1.1% (n = 66,000) | AID 1224903; in the data active = normalised signal below about 0.5;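 note: 100 nL library stock added to about 20 µL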
Target sequence (O95931 whole entry, looked up): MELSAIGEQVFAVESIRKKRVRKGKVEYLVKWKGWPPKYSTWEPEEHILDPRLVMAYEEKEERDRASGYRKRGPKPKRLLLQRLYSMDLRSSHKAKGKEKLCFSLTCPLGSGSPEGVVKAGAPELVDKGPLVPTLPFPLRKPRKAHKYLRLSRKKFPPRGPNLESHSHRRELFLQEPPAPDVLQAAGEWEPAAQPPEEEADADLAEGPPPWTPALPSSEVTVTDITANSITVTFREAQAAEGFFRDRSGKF
CBX7 inh z-score: also measured in CBX7 inh; calls as there; z-score; measured here: z-score of CBX7 signal; some inactives read as strong as hits; reference of the scale not given here;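 same signal on another scale; lower means less binding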
* hit, by the source's call; & = joins results of further samples. Not all compounds are listed (hit frequency here may not be typical).

SMILES	CBX7 inh	CBX7 inh z-score
CCOc1ccc(NC(=O)CN2C(=O)COc3ccc(Cl)cc32)cc1	1.04	1.26
O=C(NCCN1CCCC1)c1ccc2c(c1)N(Cc1ccc(Cl)cc1)C(=O)c1ccccc1S2(=O)=O	0.901	-1.08
NC(=O)C1CCN(C2CC(=O)N(c3ccc(F)cc3)C2=O)CC1 (centres undefined)	1.05	0.989
COc1ccc(-n2nnc3c(=O)n(CC(=O)Nc4ccc5c(c4)OCCO5)cnc32)cc1	0.926	-1.43
CCS(=O)(=O)N1CCCC(C(=O)NCc2ccccc2Cl)C1 (centres undefined)	1.02	1.23
Cc1cc(C)cc(Nc2nc(-c3ccccc3Cl)nc3ccccc23)c1	1.17	2.04
CCOC(=O)c1cc(-c2ccccc2)n2nc(-c3ccc(Br)cc3)cc2n1	1.21	1.52
O=C(Cn1nc(Cc2ccncc2)c2ccccc2c1=O)NC1CC1	1.27	2.82
O=C1CN(c2ccc(Cl)cc2)S(=O)(=O)c2ccccc2N1	1.05	2.08
CCc1nnc(NC(=O)CSc2nnc(Cc3cc(=O)[nH]c(=O)[nH]3)n2-c2ccccc2)s1	0.854	-5.14

Next part; it opens with the five that closed the last part.
SMILES	CBX7 inh	CBX7 inh z-score
Cc1cc(C)cc(Nc2nc(-c3ccccc3Cl)nc3ccccc23)c1	1.17	2.04
CCOC(=O)c1cc(-c2ccccc2)n2nc(-c3ccc(Br)cc3)cc2n1	1.21	1.52
O=C(Cn1nc(Cc2ccncc2)c2ccccc2c1=O)NC1CC1	1.27	2.82
O=C1CN(c2ccc(Cl)cc2)S(=O)(=O)c2ccccc2N1	1.05	2.08
CCc1nnc(NC(=O)CSc2nnc(Cc3cc(=O)[nH]c(=O)[nH]3)n2-c2ccccc2)s1	0.854	-5.14
CCOC(=O)c1cnc2c(OC)cccc2c1Nc1ccc(Br)cc1C	0.89	-3.3
COc1ccc(-n2cc(-c3ccccc3)nc2SCC(=O)Nc2ccccc2)cc1Cl	0.765	-7.73
CCOC(=O)c1c(NC(=O)c2cc(C)no2)sc2c1CCCC2	1.07	0.992
CCOc1ccc2nc(N3CCCC(C(=O)Nc4ccc(Br)c(C)c4)C3)sc2c1 (centres undefined)	1.31	1.83
Cc1cccc(Cn2c(=O)n(CCCCCC(=O)NCc3ccccc3)c(=O)c3sccc32)c1	1.07	1.45
O=C(Nc1c2c(nn1-c1ccc(F)cc1)CS(=O)(=O)C2)c1cccc(Br)c1	0.884	-1.31
CCOc1ccc(CN2C(=O)c3ccccc3C2C(=O)NCc2cccnc2)cc1OC (centres undefined)	1.04	1.36
CCOc1ccc(-c2cc(C(=O)NC(C)C)c3ccccc3n2)cc1	1.02	0.443
CCOc1ccc(CCNC(=O)c2ccc3c(c2)N(CC)C(=O)c2ccccc2S3)cc1OCC	1.22	1.61
Cc1ccccc1-c1nc(CN2CCC(C(=O)NC3CCCCCCC3)CC2)c(C)o1	0.859	-2.15

3 entries out of the list, arranged by number of heavy atoms, falling.
SMILES	CBX7 inh	CBX7 inh z-score
Cc1cccc(Cn2c(=O)n(CCCCCC(=O)NCc3ccccc3)c(=O)c3sccc32)c1	1.07	1.45
CCOc1ccc(CN2C(=O)c3ccccc3C2C(=O)NCc2cccnc2)cc1OC (centres undefined)	1.04	1.36
CCOc1ccc2nc(N3CCCC(C(=O)Nc4ccc(Br)c(C)c4)C3)sc2c1 (centres undefined)	1.31	1.83

Other compounds:
SMILES	CBX7 inh	CBX7 inh z-score
CCOc1ccccc1NC(=O)c1cc2c(-c3cccc(OC)c3)nn(C)c2s1	1.01	0.248
CCOC(=O)c1c(NC(=O)c2ccc(C)cc2)sc2c1CCC(CC)C2 (centres undefined)	1.25	9.99
Fc1ccccc1Cn1c(-c2cccs2)nc2ccccc21	0.79	-2.07
O=C1CN(C(=O)c2cccc(F)c2)C(c2ccccc2)c2cc(Cl)ccc2N1 (centres undefined)	0.78	-2.1
Cc1noc(/C=C/c2cccs2)c1S(=O)(=O)N1CCC(C(=O)Nc2cccc(Cl)c2)CC1	0.899	-0.209
COc1cccc(CNc2ccc3c(c2)nc(C)n3C)c1OC	0.841	-1.79
Cc1ccnc(NS(=O)(=O)c2ccc(NC(=O)Cc3ccccc3)cc2)n1	1.02	0.466
CCC(Cc1ccccc1)NC(=O)CS(=O)(=O)Cc1nc(-c2ccccc2Cl)oc1C (centres undefined)	0.979	-0.594
CCOc1ccc(CCNC(=O)c2cc3c(-c4cccc(OC)c4)nn(C)c3s2)cc1OCC	0.917	-0.862
CCOc1ccc2nc(SCC(=O)Nc3ccc(S(N)(=O)=O)cc3)[nH]c2c1	1.01	0.0527

Looked up above.
`CCS(=O)(=O)N1CCCC(C(=O)NCc2ccccc2Cl)C1` (centres undefined) – CBX7 inh z-score = 1.23
`CCOc1ccc2nc(SCC(=O)Nc3ccc(S(N)(=O)=O)cc3)[nH]c2c1` – CBX7 inh = 1.01
`CCOc1ccc(NC(=O)CN2C(=O)COc3ccc(Cl)cc32)cc1` – CBX7 inh z-score = 1.26
`COc1cccc(CNc2ccc3c(c2)nc(C)n3C)c1OC` – CBX7 inh z-score = -1.79

Next results:
SMILES	CBX7 inh	CBX7 inh z-score
COc1ccc(C(=O)NCCc2cc3c(OC)ccc(OC)c3[nH]c2=O)cc1	0.945	-0.704
Clc1ccc(-c2csc(Nc3ccccc3)n2)cc1Cl	0.792	-4.01
O=C(Nc1ccccc1F)C1CCN(S(=O)(=O)c2ccccc2)CC1	1.08	1.58
Cc1ccc(NC(=O)CS(=O)(=O)c2nc(-c3ccc4c(c3)OCO4)cn2-c2ccc(F)cc2)cc1	0.952	-1.98
Cc1ccc(-n2cc3c(c2-c2ccccc2)c(=O)n(C)c(=O)n3C)cc1	0.923	-0.885
O=C(Cn1c(NCCO)nc2ccccc21)c1cccs1	0.934	-1.29
COc1ccc(-c2nc3cc(NC(=O)c4cccc(OC(C)C)c4)ccc3o2)cc1	0.974	-0.929
COc1ccc(Cl)cc1NS(=O)(=O)c1ccc2c(c1)CCN2C(C)=O	0.994	-0.194
CCCCCc1ccc(-c2ccc(C(=O)Nc3ccc(Br)cc3)cc2)nc1	1.09	1.94
CCCOc1ccc(C2C(=O)N(C3CCC(C)CC3)CC(=O)N2Cc2ccccc2)cc1OC (centres undefined)	0.743	-0.303
CCOc1c(OC)cccc1C1CC(=O)NC2=C1C(=O)CCC2 (centres undefined)	1.27	1.76
CC1CCCCN1S(=O)(=O)c1ccc(C(=O)Nc2nc(-c3ccccn3)cs2)cc1 (centres undefined)	0.193*	-26.2*
Cc1cccc2c1nc1s/c(=C\c3ccc(F)cc3)c(=O)n12	1.01	0.277
CC(C)c1ccc(Nc2cc(C(=O)NCC3CCCO3)c3ccccc3n2)cc1 (centres undefined)	1.08	0.0763
Cc1ccccc1CSc1nnc(Cc2cc(=O)[nH]c(=O)[nH]2)n1-c1ccc(F)cc1	1.1	2.58
O=C(CCN1CCCCC1c1cccnc1)NCc1ccccc1 (centres undefined)	0.885	-2.26
O=C(NCCCN1CCCC1=O)c1csc2c1CCCC2	1.06	2.34
COc1ccc(-n2c(C)nc3cc(C(=O)O)ccc32)cc1	1.02	0.606
CC(CCc1ccccc1)NC(=O)c1ccc2c(c1)N(Cc1ccc(Cl)cc1)C(=O)CS2 (centres undefined)	1.06	2.74
Cc1cccc2c1-c1sc(C(=O)Nc3ccc4c(c3)OCCO4)cc1CO2	1.04	1.37
Cc1nc(SCC(=O)Nc2cc(C)on2)n[nH]1	1.03&1.02	0.803&0.481
CN(Cc1ccccc1)C(=O)c1ccc2c(c1)N(Cc1ccc(F)cc1)C(=O)c1ccccc1S2=O (centres undefined)	0.982	-0.253
COc1ccc2nc(N3CCCC(C(=O)NCCCN4CCN(C)CC4)C3)sc2c1 (centres undefined)	1.14	2.43
COc1ccc(OC)c(Nc2nc3nonc3nc2N2CCCCC2)c1	1.02	0.427
O=C(Cc1ccccc1)Nc1nnc(Cc2ccc(Cl)c(Cl)c2)s1	1.01	0.0441
CC(=O)Nc1ncc(Cc2ccc(F)cc2)s1	1.07&1.02	0.676&0.835
Cn1nc(C(=O)N2CCOCC2)c2ccccc2c1=O	1.04	1.84
COc1cc2[nH]c(=O)n(Cc3ccc(C(=O)NCCCN4CCCC4=O)cc3)c(=O)c2cc1OC	1.01	0.376
O=C(NCc1ccccc1)c1cc(-c2ccccn2)nc2ccc(S(=O)(=O)N3CCOCC3)cc12	0.78	-2.6
CCCN(CCC)CCCNC(=O)C(=O)NCc1cccnc1	0.933	-0.925
O=C(CN1CCN(Cc2ccc(F)cc2)C1=O)NCCc1ccc(Cl)cc1	1.07	1.51
COc1ccc(C(=O)c2oc3ccccc3c2NC(=O)c2ccc(C(C)(C)C)cc2)cc1	1.74	3.23
CCN(Cc1ccccc1)C(=O)c1oc2ccc(S(=O)(=O)N3CCCCCC3)cc2c1C	0.899	-2.31
CCN(C(=O)c1cc2c(s1)-c1ccccc1OC2)c1cccc(C)c1	1.15	7.12
Cc1ccc(CNC(=O)c2cc3sccc3n2C)cc1	1.04	0.162
CCc1ccc(NC(=O)C(NS(=O)(=O)c2ccc3nc(C)sc3c2)C(C)C)cc1 (centres undefined)	0.999	-0.00975
CCOC(=O)c1cnc2ccc(OC)cc2c1Nc1cccc(OC)c1	0.771	-0.809
CC(NC(=O)C1CCCN(C(=O)c2cc3sccc3n2C)C1)c1ccc2c(c1)OCCO2 (centres undefined)	0.78	-6.34
COc1ccc(-c2noc(CCC(=O)NCc3ccc(OC)cc3OC)n2)cc1	0.833	-2.56
COc1cc(OC)cc(-c2cc3nc(C)c(CCC(=O)NCc4ccccc4)c(C)n3n2)c1	0.975	-0.611
FC(F)(F)c1c2c(nc3cc(-c4ccc(Br)cc4)nn13)CCCC2	1.29	3.42
CC1CCC(NC(=O)c2cnn3ccccc23)CC1 (centres undefined)	1.1	2.32
CCN(CCCNC(=O)c1cc2c(-c3ccc(Cl)cc3)nn(C)c2s1)c1ccccc1	0.907	-0.391
O=C(c1ccc2c(c1)N(Cc1ccc(F)cc1)CCS2)N1CCOCC1	0.975	-0.8
CCCCNc1nc(CCCC)c2c(c1C#N)CC(C)(C)OC2	1.12	4.32
CCc1ccc(NC(=O)Cn2c(SCc3cccc(C)c3)nc3ccncc32)cc1	0.966	-0.476
Cc1ccc2nc(-c3ccc(Cl)cc3)c(Nc3ccccc3C)n2c1	0.772	-2.33
CCCOc1ccc(Cn2c(Cc3ccccc3)nc3ccccc32)cc1	0.979	-1.09
Cc1ccc(NC(=O)C2OC3OC(C)(C)OC3C3OC(C)(C)OC23)cc1Cl (centres undefined)	1.02	0.25
Cc1ccc(S(=O)(=O)Nc2ccc3c(c2)ncn3C(C)(C)C)cc1	0.889	-0.255

Nothing new here: 2 of the compounds above.
SMILES	CBX7 inh	CBX7 inh z-score
Cc1ccc(NC(=O)C2OC3OC(C)(C)OC3C3OC(C)(C)OC23)cc1Cl (centres undefined)	1.02	0.25
Cc1ccc(S(=O)(=O)Nc2ccc3c(c2)ncn3C(C)(C)C)cc1	0.889	-0.255

Additional compounds follow.
SMILES	CBX7 inh	CBX7 inh z-score
O=C1CCc2cc(S(=O)(=O)N3CCC(C(=O)NCc4ccc(F)cc4)CC3)ccc2N1	0.949	-1.29
CCN(Cc1ccccc1)S(=O)(=O)c1ccc(C(=O)Nc2nnc(-c3ccc(OC)cc3)o2)cc1	1.18	3.98
CC(C)NC(=O)C1CCN(C(=O)c2cc3sccc3n2Cc2ccc(F)cc2)CC1	1.06	2.38
CCOCCCNC(=O)CN1C(=O)COc2ccc(C(C)(C)C)cc21	0.942	-1.01
O=C(NCc1ccc(F)cc1)C1CCCN(S(=O)(=O)c2ccc(Br)s2)C1 (centres undefined)	0.805	-0.786
Cc1nc2cc(C(=O)NCc3ccc(F)cc3)ccc2n1-c1cccc(F)c1	0.995	-0.21
COc1ccc(OC)c(Nc2nc3nonc3nc2N2CCCC(C)C2)c1 (centres undefined)	1.02	0.411
COCCN1Cc2cccc(C(=O)Nc3cccc(C)c3C)c2C1=O	1.08	0.938
Cc1ccc(NS(=O)(=O)c2ccc3c(c2)CCN3C(=O)CCC(=O)O)cc1C	0.934	-1.09
O=C(Nc1nnc(Cc2ccc(Cl)cc2)s1)c1cccnc1	0.765	-5.01
COc1ccc(CCNC(=O)c2ccc3c(c2)ncn3-c2ccc(F)cc2F)cc1OC	1.01	0.152
Cc1ccccc1C(=O)Nc1nnc(-c2ccccc2Cl)s1	1.06	2.32
Cc1ccc(-c2nc(NC(=O)CCCOc3ccc(Cl)cc3)sc2C)cc1	1.01	0.313
Cc1cc(NC(=O)c2cc3c(s2)-c2c(C)cccc2OC3)no1	1.01	0.321
OCCCNc1nc2ccccc2n1Cc1ccccc1	1.02	0.45
CC(C)c1ccc(C(=O)CC2(O)C(=O)Nc3ccccc32)cc1 (centres undefined)	1.08	0.388
CCOc1ccc2nc(N3CCC(C(=O)Nc4ccc(Br)c(C)c4)CC3)sc2c1	1.03	1.37
CCOC(=O)N1CCC(Nc2c(NCC3CCCO3)c(=O)c2=O)CC1 (centres undefined)	1.06	0.95
Cc1ccc(Cn2c(C(=O)Nc3cccc(Cl)c3)cc3sccc32)cc1	1.17	4.61
Cc1ccc(C)c(NC(=O)C2CCCN(S(=O)(=O)c3c(C)noc3C)C2)c1 (centres undefined)	1	0.0317
Cc1ccnc(N2C(=O)c3ccccc3C2Nc2ccc(Br)cc2F)c1 (centres undefined)	1.05	1.95
COc1ccc(CCN2CC(C(=O)NC(C)C)CC2=O)cc1OC (centres undefined)	0.939	-1.57
Cc1ccc(-c2nnc(Nc3ccc(C(N)=O)cc3)c3ccccc23)cc1S(=O)(=O)N(C)C	0.977	-0.433
COc1ccccc1C1CC(=O)Nc2c1ccc(C)c2C (centres undefined)	0.98	-0.695
CCN1CCCC1CNC(=O)c1cc(Nc2ccc(C)c(C)c2)nc2ccccc12 (centres undefined)	1.07	2.07
O=C(CC1Nc2ccccc2NC1=O)NCc1ccc2c(c1)OCO2 (centres undefined)	1.01	0.163
CCN(CC)CCCC1(CN)OCCc2ccccc21 (centres undefined)	1.19	0.526
CCC(Sc1nc(Nc2cc(OC)cc(OC)c2)c2ccccc2n1)C(=O)Nc1ccc2c(c1)OCO2 (centres undefined)	1.01	0.722
COc1ccc(CNC(=O)c2cnn3c(C)c(Cc4cccc(C)c4)c(C)nc23)cc1	0.803	-5.43

Screening results from PubChem BioAssay.
